Ecoli growth = inhibitors of Escherichia coli growth; OD600, 23 h; stronger effect = lower value; OD600 absorbance (no concentration beside the values); hit rate 0.21% among 330,000;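 active means OD600 absorbance below the run mean of sample wells minus 3.6 SD, in any replicate, cut at about 0.56 in these data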;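 further: stock transfer was 300 nL into about 60 µL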
HNF4A DNA FP = change in binding of human HNF4 alpha to DNA; hit rate 0.3% among 360,000; AID 1224865; activity change, % at 10 µM; HNF4a-FITC DNA binding, fluorescence polarization, 1 h; in the data active means activity change above about 30%, passing the limit was not always enough;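 further: controls were the assay level and a saturating level of protein; the project sought stronger binding though the title names inhibitors; some compounds called inactive have numbers as strong as hits; positive values seem to mean higher polarization but the record does not say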
AF4-AF9 inh = inhibitors of human MLL-AF4/AF9 interaction; P42568; AlphaScreen, biotin-AF4 peptide binding to FLAG-AF9; inhibition, % at 10 µM; hit rate 0.47% among 350,000; AID 651704;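 active means every replicate reaching a set inhibition limit, whatever the replicate mean, cut at about 25% in these data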;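 further: 0% = plate neutral control median and 100% = total signal loss; the record names both 10 and 1 µM as test concentration; the first replicate is given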
Target sequence (P42568 whole entry, looked up): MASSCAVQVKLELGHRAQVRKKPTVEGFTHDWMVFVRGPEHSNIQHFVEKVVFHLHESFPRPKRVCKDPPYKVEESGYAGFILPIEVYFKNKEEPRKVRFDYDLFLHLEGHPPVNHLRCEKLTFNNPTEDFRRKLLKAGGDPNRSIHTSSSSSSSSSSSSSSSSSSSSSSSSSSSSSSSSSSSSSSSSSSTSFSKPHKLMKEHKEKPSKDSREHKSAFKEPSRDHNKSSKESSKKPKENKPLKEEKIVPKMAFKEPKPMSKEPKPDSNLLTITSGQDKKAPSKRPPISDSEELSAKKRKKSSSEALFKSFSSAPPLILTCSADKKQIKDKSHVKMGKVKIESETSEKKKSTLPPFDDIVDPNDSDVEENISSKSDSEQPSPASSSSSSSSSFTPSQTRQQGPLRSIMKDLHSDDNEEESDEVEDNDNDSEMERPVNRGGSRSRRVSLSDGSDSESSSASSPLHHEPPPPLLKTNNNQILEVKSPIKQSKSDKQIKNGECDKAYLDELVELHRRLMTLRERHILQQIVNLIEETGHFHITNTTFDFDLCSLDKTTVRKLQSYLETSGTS
rRNA inh HTS = inhibitors of bacterial rRNA selective over humanized ribosomes | hit rate 1.6% among 350,000 | GFP signal change (wild-type ribosome), % (no concentration beside the values) | E. coli WT GFP vs humanized-ribosome RFP mutants, fluorescence, 24 h; stronger effect = lower value; DMSO median 0, no signal -100;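 active means significant combined selectivity score with lowered wild-type GFP, culture density cut under 30%, mutant RFP and density less affected; inactive means any of these conditions unmet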; further: one replicate is shown; some compounds called inactive have numbers as strong as hits
Vif TR-FRET = inhibitors of Vif binding to APOBEC3G peptide, primary screen, biochemical, TR-FRET, GST-Vif 1-94, biotin-A3G peptide, dose response retest (AID 1117319) | TR-FRET GST-Vif / biotin-A3G peptide binding; higher % means a stronger effect; test concentration not given here; strong numbers were not always called active | inhibition, %; hits with a dose series show IC50 in µM | hit rate 0.57% among 260,000;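 active means above the screen mean plus three standard deviations and confirmed in dose response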;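 further: Vif residues 1-94 fused to GST binding biotinylated APOBEC3G peptide 110-148; 0% = full assay without inhibitor and 100% = GST in place of GST-Vif; retest series ran down from 100 µM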
ALR inh = human ALR oxidase inhibition via reduced H2O2 | P55789 | purified ALR, DTT oxidation, H2O2 HRP-luminol luminescence | inhibition, % (test concentration not listed) | hit rate 3.8% among 290,000;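 active means mean and each replicate at 75% or more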;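 further: stock transfer was 7.5 nL into about 7.5 µL; 0% = neutral wells and 100% = wells with inactivated enzyme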
Target sequence (P55789 whole entry, looked up): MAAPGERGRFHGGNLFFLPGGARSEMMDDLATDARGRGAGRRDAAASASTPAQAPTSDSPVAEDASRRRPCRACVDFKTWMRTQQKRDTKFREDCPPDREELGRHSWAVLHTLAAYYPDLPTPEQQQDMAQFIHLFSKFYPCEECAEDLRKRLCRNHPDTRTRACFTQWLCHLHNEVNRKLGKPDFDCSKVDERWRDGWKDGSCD
FGF22 binding = FGF22 (human) thermal shift binding; Q9HCT0; recombinant FGF22 thermal shift, SYPRO orange fluorescence; percent of sucrose octasulfate shift, DMSO zero; calls only at 9.99 µM; hit rate 1.5% among 340,000; AID 651658;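 active means melting point raised past a set limit in the mean and every replicate; three in four hits are not shown here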
Target sequence (Q9HCT0 whole entry, looked up): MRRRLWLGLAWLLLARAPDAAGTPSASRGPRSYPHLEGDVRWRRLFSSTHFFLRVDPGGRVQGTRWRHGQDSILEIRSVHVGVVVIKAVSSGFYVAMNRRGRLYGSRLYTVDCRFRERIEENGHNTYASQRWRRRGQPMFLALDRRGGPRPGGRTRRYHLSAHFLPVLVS
rRNA inh HTS OD600 = recorded beside rRNA inh HTS, whose call it bears; OD600 change, %; measured here: OD600 growth;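 optical density of the mix in the first replicate; 0 = DMSO median and -100 = no signal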
rRNA inh HTS RFP = recorded beside rRNA inh HTS, whose call it bears; RFP signal change, %; measured here: RFP humanized mutant strains;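 first replicate; 0 = DMSO median and -100 = no signal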
The depositor's hits bear a star. Only part of the results is shown, so the mix of outcomes need not match the whole.

For CO[C@H]1CN(C)C(=O)c2ccc(NC(=O)C3CC3)cc2OC[C@@H](C)N(C(=O)CN2CCOCC2)C[C@H]1C the results were AF4-AF9 inh -1.6, rRNA inh HTS 1, FGF22 binding inactive, rRNA inh HTS OD600 4 and rRNA inh HTS RFP -2.9.
`CCC(C)c1ccccc1N1CC(C(=O)N2CCN(c3ccccc3)CC2)CC1=O` (centres undefined) gave Ecoli growth 0.69, HNF4A DNA FP -3.9, AF4-AF9 inh 1.1, rRNA inh HTS -6, Vif TR-FRET -1%, FGF22 binding inactive, rRNA inh HTS OD600 -9 and rRNA inh HTS RFP 0.3.
For CCOC(=O)CN(C(=O)CSc1nnc2c(n1)[nH]c1ccccc12)c1ccccc1 the results were Ecoli growth 0.71, HNF4A DNA FP 0.3, Vif TR-FRET 1% and ALR inh -1.
COc1cccc(CNC(=S)Nc2cc(OC)ccc2OC)c1 was read as Ecoli growth 0.66, HNF4A DNA FP 1.9, AF4-AF9 inh 3.2, rRNA inh HTS -17, Vif TR-FRET 1%, ALR inh -12, FGF22 binding inactive, rRNA inh HTS OD600 -8 and rRNA inh HTS RFP 0.8.
Screening C#CCN(C[C@@H]1[C@@H](OC(=O)NCc2ccccc2)[C@@H](OC(=O)NCc2ccccc2)CN(C(=O)OC(C)C)N1C(=O)OC(C)C)S(=O)(=O)c1ccc(C)cc1 returned HNF4A DNA FP 0.0, AF4-AF9 inh -1.5, rRNA inh HTS 11, Vif TR-FRET -1%, FGF22 binding inactive, rRNA inh HTS OD600 0 and rRNA inh HTS RFP -0.4.
`COc1cccc(NC(=O)CN(C)C(=O)C(C)Sc2ccccc2)c1` (centres undefined) gave Ecoli growth 0.68, HNF4A DNA FP -6.3, AF4-AF9 inh -0.1, rRNA inh HTS -7, Vif TR-FRET 1%, FGF22 binding inactive, rRNA inh HTS OD600 -2 and rRNA inh HTS RFP -0.8.
For CC1=CC(c2ccc(Cl)cc2)n2nc(N3C(=O)CCC3=O)nc2N1 (centres undefined) the results were Ecoli growth 0.68, HNF4A DNA FP -2.2, Vif TR-FRET -1% and ALR inh 19.
`Cc1noc(C)c1NC(=O)Nc1ccc2c(c1)C(=O)N([C@@H](C)CO)C[C@@H](C)[C@H](CN(C)C)OCCCC[C@H](C)O2` gave AF4-AF9 inh -1.2, rRNA inh HTS 2, FGF22 binding inactive, rRNA inh HTS OD600 1 and rRNA inh HTS RFP 0.6.
For O=C(CSc1cccc2cccc(Cl)c12)NC1=NCCS1 the results were Ecoli growth 0.65, HNF4A DNA FP 1.9, AF4-AF9 inh 2.2, rRNA inh HTS -14, Vif TR-FRET 5%, ALR inh -18, FGF22 binding inactive, rRNA inh HTS OD600 -5 and rRNA inh HTS RFP 2.5.
`CCc1nnc(NC(=O)CN2CCC(O)(c3ccccc3OC)CC2)s1` gave Ecoli growth 0.72, HNF4A DNA FP -0.4, rRNA inh HTS 6, Vif TR-FRET 4%, ALR inh 0, rRNA inh HTS OD600 10 and rRNA inh HTS RFP -0.4.
For Cc1nc(NCCCn2ccnc2)c2oc3ccccc3c2n1 the results were Ecoli growth 0.69, HNF4A DNA FP -1.7, Vif TR-FRET 30% and ALR inh -12.
`Cc1ccc([C@@H]2[C@@H]3C(=O)N(C)C(=O)[C@@H]3[C@]3(Cc4ccccc4)C(=O)N(CCO)CC(=O)N23)o1` gave HNF4A DNA FP 0.3, AF4-AF9 inh -1.8, rRNA inh HTS 4, ALR inh 0, FGF22 binding inactive, rRNA inh HTS OD600 -2 and rRNA inh HTS RFP -0.9.
`Cc1ccsc1/C=N/NC(=O)c1nnn(-c2nonc2N)c1C` gave HNF4A DNA FP -1.8, AF4-AF9 inh 1.7, rRNA inh HTS 9, Vif TR-FRET -1%, ALR inh 0, FGF22 binding inactive, rRNA inh HTS OD600 5 and rRNA inh HTS RFP 5.7.
Screening CCOC(=O)N1CCN(Cc2nc3cc(NC(C)=O)ccc3n2C)CC1 returned Ecoli growth 0.69, HNF4A DNA FP 3.6, AF4-AF9 inh 0.7, rRNA inh HTS 6, Vif TR-FRET -1%, ALR inh -2, FGF22 binding inactive, rRNA inh HTS OD600 10 and rRNA inh HTS RFP -6.2.
Screening CCOC(=O)N1CCN(C(=O)c2ccc3c(c2)ncn3C2CCCC2)CC1 returned Ecoli growth 0.69, HNF4A DNA FP -0.2, AF4-AF9 inh 5.5, rRNA inh HTS 9, Vif TR-FRET 27%, ALR inh -4, FGF22 binding inactive, rRNA inh HTS OD600 2 and rRNA inh HTS RFP -2.8.
`O=c1nc2n(c3ccc([N+](=O)[O-])cc13)CCCCC2` gave Ecoli growth 0.65, HNF4A DNA FP 1.3, AF4-AF9 inh -2.0, rRNA inh HTS 15, Vif TR-FRET -7%, ALR inh -26, FGF22 binding inactive, rRNA inh HTS OD600 14 and rRNA inh HTS RFP 0.7.
`CC1Cc2ccccc2N1C(=O)CSc1ccccc1` (centres undefined) gave Ecoli growth 0.71, HNF4A DNA FP 2.6, Vif TR-FRET 2% and ALR inh 0.
COCCCNCCOCCSc1ccc(Cl)cc1 was read as Ecoli growth 0.63, HNF4A DNA FP -3.2, AF4-AF9 inh 3.2, rRNA inh HTS 9, Vif TR-FRET 6%, FGF22 binding inactive, rRNA inh HTS OD600 -3 and rRNA inh HTS RFP 2.9.
For CC(C)Cn1c(SCC(=O)Nc2cc(Cl)c(Cl)cc2Cl)nc(O)cc1=O the results were Ecoli growth 0.74, HNF4A DNA FP 2.6, AF4-AF9 inh 1.0, rRNA inh HTS -15, Vif TR-FRET 0%, ALR inh -52, FGF22 binding inactive, rRNA inh HTS OD600 -17 and rRNA inh HTS RFP 9.3.
C[C@H](CO)N1C[C@H](C)[C@H](CN(C)S(=O)(=O)c2ccccc2C#N)OCc2ccccc2-c2ccccc2C1=O was read as AF4-AF9 inh -1.2, rRNA inh HTS -4, FGF22 binding inactive, rRNA inh HTS OD600 -5 and rRNA inh HTS RFP -0.8.
Screening Cc1ccc(OCC(O)CNC(=O)c2ccccc2C(=O)O)cc1 (centres undefined) returned Ecoli growth 0.76, HNF4A DNA FP 2.1, Vif TR-FRET -4% and ALR inh 1.
O=C(COc1ccc(Cl)cc1)OCC(=O)N1CCCc2ccccc21 was read as Ecoli growth 0.69, HNF4A DNA FP 3.8, AF4-AF9 inh -1.0, rRNA inh HTS -9, ALR inh -2, FGF22 binding inactive, rRNA inh HTS OD600 -12 and rRNA inh HTS RFP -3.0.
For CN(C)CCCN(C(=O)CCc1ccccc1)c1nc2ccc(Cl)cc2s1 the results were Ecoli growth 0.6, HNF4A DNA FP -0.5 and ALR inh -11.
`O=C(O)c1ccccc1C(=O)Nc1ccc(Oc2cccc(C(F)(F)F)c2)nc1` gave Ecoli growth 0.72, HNF4A DNA FP 1.7, AF4-AF9 inh -16, rRNA inh HTS 67, ALR inh -11, FGF22 binding inactive, rRNA inh HTS OD600 1 and rRNA inh HTS RFP 23.
`O=S(=O)(Cc1ccc(Cl)cc1)N1CCCC1` gave Ecoli growth 0.66, HNF4A DNA FP 0.6, AF4-AF9 inh 2.2, rRNA inh HTS 6, Vif TR-FRET 13%, ALR inh 0, FGF22 binding inactive, rRNA inh HTS OD600 13 and rRNA inh HTS RFP -0.4.
`COc1ccc(CCNC(=O)CN2C(=O)c3cccc4cccc(c34)C2=O)cc1OC` gave Ecoli growth 0.72, HNF4A DNA FP 4.8, AF4-AF9 inh -1.4, rRNA inh HTS 17, Vif TR-FRET 4%, ALR inh -5, rRNA inh HTS OD600 6 and rRNA inh HTS RFP -0.6.
`Nc1ncnc(N)c1NC(=O)c1ccccc1` gave AF4-AF9 inh 2.3, rRNA inh HTS 10, FGF22 binding inactive, rRNA inh HTS OD600 20 and rRNA inh HTS RFP 3.8.
`CCCN(C)C[C@@H]1OCCCC[C@@H](C)Oc2ccc(NS(C)(=O)=O)cc2C(=O)N([C@@H](C)CO)C[C@@H]1C` gave AF4-AF9 inh 1.5, rRNA inh HTS 3, FGF22 binding inactive, rRNA inh HTS OD600 5 and rRNA inh HTS RFP -2.7.
For CCC(=O)Nc1ccc(N2CCN(Cc3ccccc3F)CC2)cc1 the results were Ecoli growth 0.7, HNF4A DNA FP -0.6, Vif TR-FRET 8% and ALR inh -14.
Screening CCOC(=O)CCN(C(=O)Nc1ccccc1)C1CCCCC1 returned Ecoli growth 0.7, HNF4A DNA FP -0.1, AF4-AF9 inh -13, rRNA inh HTS 13, Vif TR-FRET -4%, FGF22 binding inactive, rRNA inh HTS OD600 10 and rRNA inh HTS RFP 1.6.
`COCC(=O)Nc1ccc2c(c1)C(=O)N(C)[C@@H]1CC[C@H](CC(=O)NCCCN(C)C)O[C@@H]1CO2` gave AF4-AF9 inh -13, rRNA inh HTS 6, FGF22 binding inactive, rRNA inh HTS OD600 3 and rRNA inh HTS RFP -0.1.
Screening CCOC(=O)c1ccc[n+](CC(=O)c2ccc(OC)cc2)c1 returned Ecoli growth 0.67, HNF4A DNA FP 0.2, AF4-AF9 inh 1.3, rRNA inh HTS 23, Vif TR-FRET 9%, ALR inh 9, FGF22 binding inactive, rRNA inh HTS OD600 11 and rRNA inh HTS RFP 2.2.
`COc1cc(C(=O)NNC(=O)c2ccco2)cc(OC)c1OC` gave Ecoli growth 0.63, HNF4A DNA FP 0.0, AF4-AF9 inh -2.9, rRNA inh HTS -2, FGF22 binding inactive, rRNA inh HTS OD600 -4 and rRNA inh HTS RFP -2.4.
`CC(C)OC(=O)c1ccc(NC(=S)NC(=O)c2cncc(Br)c2)cc1` gave Ecoli growth 0.71, HNF4A DNA FP 2.3, AF4-AF9 inh -0.2, rRNA inh HTS 4, Vif TR-FRET -1%, ALR inh -3, FGF22 binding inactive, rRNA inh HTS OD600 3 and rRNA inh HTS RFP 0.1.
`COc1ccccc1C1=CC(=O)C[C@H](c2ccc3c(c2)OCO3)C1` gave HNF4A DNA FP -4.2, AF4-AF9 inh 3.2, rRNA inh HTS -22, ALR inh 0, FGF22 binding inactive, rRNA inh HTS OD600 -35 and rRNA inh HTS RFP -21.
`COc1ccccc1C(=O)Nc1ccc2c(c1)C(=O)N(C)[C@H]1CC[C@@H](CC(=O)NCc3ccc(Cl)c(Cl)c3)O[C@H]1CO2` gave AF4-AF9 inh -2.3, rRNA inh HTS -9, FGF22 binding inactive, rRNA inh HTS OD600 -6 and rRNA inh HTS RFP 2.7.
Screening O=C(/C=C/c1ccco1)NCC1COc2ccccc2O1 (centres undefined) returned Ecoli growth 0.62, HNF4A DNA FP 0.1, AF4-AF9 inh -2.0, rRNA inh HTS -8, ALR inh 32, FGF22 binding inactive, rRNA inh HTS OD600 -5 and rRNA inh HTS RFP 8.1.
Screening COc1ccc(NC(=O)CC2SC(=O)NC2=O)cc1 (centres undefined) returned Ecoli growth 0.68, HNF4A DNA FP 2.8, Vif TR-FRET 12% and ALR inh 12.
CCCNC(=O)Nc1ccc2c(c1)OC[C@@H](C)N(C(=O)CC)C[C@@H](C)[C@H](OC)CN(C)C2=O was read as AF4-AF9 inh -3.1, rRNA inh HTS -1, FGF22 binding inactive, rRNA inh HTS OD600 2 and rRNA inh HTS RFP -0.2.
For CSc1ccccc1NC(=O)CN(c1ccccc1Br)S(C)(=O)=O the results were Ecoli growth 0.69, HNF4A DNA FP 2.1, AF4-AF9 inh 3.9, rRNA inh HTS -3, Vif TR-FRET 1%, ALR inh 2, FGF22 binding inactive, rRNA inh HTS OD600 -5 and rRNA inh HTS RFP -0.3.

2 compounds picked at random from those above:
Screening O=C(/C=C/c1ccco1)NCC1COc2ccccc2O1 (centres undefined) returned Ecoli growth 0.62, HNF4A DNA FP 0.1, AF4-AF9 inh -2.0, rRNA inh HTS -8, ALR inh 32, FGF22 binding inactive, rRNA inh HTS OD600 -5 and rRNA inh HTS RFP 8.1.
Screening COc1ccc(NC(=O)CC2SC(=O)NC2=O)cc1 (centres undefined) returned Ecoli growth 0.68, HNF4A DNA FP 2.8, Vif TR-FRET 12% and ALR inh 12.

Source: PubChem
